Screens: PubChem, several laboratories
GALR2 agonist: activates the human galanin receptor 2; GALR2-expressing cells, agonist activation read-out; activation, %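 (tested at 5 µM)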; 140,000 compounds, 0.48% hits; O43603;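 active = above mean plus 3 SD of all compounds, about 5% in these data, not always enough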;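 also: 0% = vehicle buffer wells and 100% = reference agonist at full effect; tested in CHO reporter cells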
Target sequence (O43603 whole entry, looked up): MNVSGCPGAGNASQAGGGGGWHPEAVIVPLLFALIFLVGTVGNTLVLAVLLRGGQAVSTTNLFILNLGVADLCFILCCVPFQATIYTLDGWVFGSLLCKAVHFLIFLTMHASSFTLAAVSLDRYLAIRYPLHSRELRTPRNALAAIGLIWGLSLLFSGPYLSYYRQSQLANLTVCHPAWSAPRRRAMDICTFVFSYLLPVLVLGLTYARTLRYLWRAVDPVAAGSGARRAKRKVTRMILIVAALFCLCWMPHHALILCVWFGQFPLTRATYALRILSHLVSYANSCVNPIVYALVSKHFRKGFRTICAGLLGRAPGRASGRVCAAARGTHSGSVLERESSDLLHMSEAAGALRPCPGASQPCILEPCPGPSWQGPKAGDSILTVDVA
PKD1 inh: inhibitors of human PKD1 kinase | Q15139 | PKD1 kinase fluorescence polarization assay | inhibition, %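 (about 10 µM by stock and volumes)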 | 200,000 compounds, 0.056% hits | AID 797;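 active = inhibition of 50% or more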;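 also: controls were vehicle for no effect and a reference inhibitor for full effect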
HSV replic up: increases HSV replication in cells | maximum fold increase | 220,000 compounds, 0.005% hits | HSV replication augmentation in cells, fold increase;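 active = peak rise of 1.5-fold or more in the series; tested in PC3 cells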;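 also: first round at 10 µM; read as green reporter fluorescence; hits show the peak of a series up to 25 µM; 1 = signal of infected wells without compound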
RGS16-Gao HTS: RGS16-Galphao interaction regulator (human) | bead-based flow cytometry RGS16-Galphao binding, fluorescence; actives lie on both sides | binding response (% of control), % at 10 µM | 220,000 compounds, 0.38% hits | O15492+P09471;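 active = below 25% or above 175%, edge rows of some plates excepted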;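 also: Galphao activated by GDP with aluminum fluoride before binding; 100% = wells without compound and 0% = beads without RGS; some results beyond the cut were filed as inactive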
Target sequence (O15492 whole entry, looked up): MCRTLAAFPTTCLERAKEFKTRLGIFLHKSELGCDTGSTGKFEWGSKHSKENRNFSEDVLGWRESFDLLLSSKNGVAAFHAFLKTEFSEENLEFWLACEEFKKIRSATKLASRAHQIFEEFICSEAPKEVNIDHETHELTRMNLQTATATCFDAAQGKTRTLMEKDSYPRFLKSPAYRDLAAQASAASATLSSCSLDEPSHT
Target sequence (P09471 whole entry, looked up): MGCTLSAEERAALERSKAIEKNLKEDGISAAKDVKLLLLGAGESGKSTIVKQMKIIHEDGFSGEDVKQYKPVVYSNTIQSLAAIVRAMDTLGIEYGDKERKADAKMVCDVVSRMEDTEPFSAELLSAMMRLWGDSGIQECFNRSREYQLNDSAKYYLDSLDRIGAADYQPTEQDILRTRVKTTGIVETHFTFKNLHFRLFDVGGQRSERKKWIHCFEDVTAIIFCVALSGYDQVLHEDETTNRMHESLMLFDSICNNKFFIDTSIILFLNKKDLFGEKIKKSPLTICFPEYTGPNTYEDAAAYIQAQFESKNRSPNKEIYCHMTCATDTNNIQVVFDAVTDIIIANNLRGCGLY
Insulin prom inh: TRM-6 insulin promoter activity inhibition; AID 1273; 130,000 compounds, 0.9% hits; inhibition, % at 2 µM; TRM-6 cells (human fetal islet line), insulin promoter-eGFP reporter, imaging; reporter expression induced with tamoxifen;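 active = inhibition above the mean plus 3 SD, with well images judged a real hit on visual review, cut at about 60% in these data, passing the limit was not always enough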
Insulin prom inh cell count: also measured in Insulin prom inh; calls as there; normalized cell count, %; measured here: cell count, toxicity; reference of the scale not given here;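 cells exposed to compound for 48 h; stained nuclei by imaging scaled within each plate; lower means fewer cells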
HSV replic up primary fold: further read-out of HSV replic up, marked with its call; fold increase; compound at 10 µM; measured here: primary screen fold increase 10 uM; tested in PC3 cells;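 GFP signal in the first replicate; 1 = infected wells without compound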
Starred values were filed as active, the others as inactive; i = inactive; . = no result given.

SMILES	GALR2 agonist	PKD1 inh	HSV replic up	HSV replic up primary fold	RGS16-Gao HTS	Insulin prom inh	Insulin prom inh cell count
CCCCNC(=O)c1ccc2c(OCC)n(CCCC)nc2c1	-2.7	-11	i	0.78	98	.	.
CCc1cc2c(nc1CC)CCN(CC/C(C)=N/O[C@@H](C)c1cc(-c3c(C)cc(C)cc3C)no1)C2	-1.1	-10	.	.	136	-171	59
CN1CCN(Cc2nc(Cc3ccccc3)no2)CC1c1ccccc1 (stereo unspecified)	.	-4	i	0.87	89	.	.
COc1cccc(C(=O)C2CCCN(Cc3c(C)n(C)n(-c4ccccc4)c3=O)C2)c1 (stereo unspecified)	.	.	i	1.1	93	.	.
COCc1[nH][nH]c(=O)c1/C=N/N1CCOCC1	.	-8	i	1	97	.	.
COc1ccccc1CNC(=O)[C@@H]1CCCN1S(=O)(=O)c1ccc(C)cc1	.	7	i	0.92	98	.	.
Cn1cc(C(=O)C(=O)N2CCN(c3ccccc3)CC2)c2ccccc21	.	-11	i	0.97	95	20	144
Brc1ccc(-c2nc(-c3ccncc3)no2)o1	-0.2	-6	i	0.96	99	35	178
Cc1ccc(N2C(=O)c3cccc(Oc4ccc(Cl)cc4)c3C2=O)c(C)c1	0.5	-2	i	1	99	13	79
O=C(Cc1cccs1)Nc1nnc(CCc2ccccc2)s1	0.1	-4	i	1.2	63	0	57
CC(C)CC(=O)NC(C)C(c1cccs1)N1CCOCC1 (stereo unspecified)	.	.	i	0.86	99	.	.
N#Cc1c(/N=C/c2ccco2)sc2c1CCC2	0.2	-1	i	1.1	88	-32	220
N#Cc1c(-c2cccc(Br)c2)cc(-c2cccnc2)nc1N	2.5	12	i	0.79	109	-8	127
O=[N+]([O-])c1c(C(Cl)Cl)nn(-c2ccccc2)c1N1CCOCC1	.	-8	i	0.99	148	-43	85
OC1(c2cccnc2)CCN(Cc2nnnn2Cc2ccccc2)CC1	.	5	.	.	105	-62	109
CCOC(=O)c1sc(NC(NC(=O)c2ccco2)(C(=O)OC)C(F)(F)F)nc1C (stereo unspecified)	-0.7	-3	i	0.96	107	.	.
COc1ccccc1N1CCN(S(=O)(=O)c2ccc(Cl)s2)CC1	-1.9	-3	i	1.4	102	-48	59
Cn1ccnc1SCc1cc(=O)[nH]c2ccccc12	-2.1	1	i	0.96	102	38	116
CCOC(=O)CC1ON(C)C(=O)N1c1ccc([N+](=O)[O-])cc1 (stereo unspecified)	-1.0	-11	i	0.95	103	35	135
O=C(CSc1ncc(-c2ccc(F)cc2)[nH]1)Nc1cccc(O)c1	-1.4	1	i	0.85	105	.	.
O=C(Cn1nnc(-c2ccccc2)n1)N1CCN(c2ccc(F)cc2)CC1	.	-8	i	1.1	110	17	111
O=c1nc(/C=C/c2ccc(-c3ccc(F)cc3)o2)cc(C(F)(F)F)[nH]1	5.5	-14	i	0.9	92	17	64
CCNC(=S)NCCN1CCOCC1	-0.8	-14	i	0.97	103	-3	146
CCCCN1C2CCCC1CC(NC(=O)c1ccc(OC)c(OC)c1)C2 (stereo unspecified)	-3.4	-2	i	0.91	102	.	.
CCc1cc2ccc(C)cc2nc1SCC(=O)N1CCN(C(=O)c2ccco2)CC1	-1.5	1	i	0.91	99	63	97
CCCCN1Cc2cc(C(=O)c3cc(F)ccc3O)cnc2NC1=O	-1.2	-17	i	0.96	99	.	.
COc1ccc(-c2coc3cc(O)cc(O)c3c2=O)cc1	-0.3	-5	i	0.86	101	-19	139
NC(Cc1ccc(OC(F)F)cc1)C(=O)O (stereo unspecified)	.	.	i	1.2	107	.	.
CCOC(=O)c1cc2c(ccn2C)n1CC(=O)N1CCC(C)CC1	-2.2	-4	i	0.96	102	35	72
O=C(CN1CCN(S(=O)(=O)c2ccccc2F)CC1)NC1CCCC1	.	-5	i	0.74	109	.	.
Cc1ccc(CN(CC(=O)NCCc2ccccc2)C(=O)CCCC(=O)Nc2cc(C)on2)cc1	-0.6	10	i	0.99	88	-14	143
COc1cccc(CNC(=O)CSc2ccc(-c3ccco3)nn2)c1	.	-1	i	1	99	25	163
CCOC(=O)c1cnn(-c2ccccc2)c1NC(=O)CSc1nnc(-c2cccs2)n1CC	-1.5	-2	i	0.99	105	-46	68
CCOC(=O)CSc1nnc(CNc2ccc(Cl)cc2)n1-c1ccccc1	-1.0	-14	i	0.75	99	27	87
OCCN1CCN(Cc2nc(-c3cccc(Cl)c3)no2)CC1	.	7	i	1	98	.	.
CC(C)CC(NC(=O)c1ccc(Cl)cc1)C(=O)O (stereo unspecified)	-2.9	-9	i	0.99	106	11	125
CC(C)(C)c1ccc(SCC(N)=O)cc1	1.7	-5	i	0.98	100	28	149
O=C(COC(=O)c1ccccc1)Nc1cccc(S(=O)(=O)NC2=NCCCCC2)c1	-0.6	-7	i	1.1	102	-27	100
COc1cccc(NC(=O)Cn2c(=O)n(CCCC(=O)NCc3ccco3)c(=O)c3ccccc32)c1	-1.7	2	i	1	99	.	.
CS(=O)(=O)N(CC(=O)N1CCc2ccccc2C1)Cc1ccccc1	-0.4	12	i	1.1	101	-31	65
CCNC(=O)NC(=O)CSc1ccc(NC(C)=O)cc1	-2.0	-11	i	1.2	58	-8	59
CCOc1ccc(Oc2ccc(Cl)cc2N)cc1	.	0	i	0.97	103	-25	139
COC(=O)C1=C(N)Oc2cc(C)n(Cc3ccccc3)c(=O)c2C1c1ccccc1 (stereo unspecified)	-1.1	6	i	0.88	102	-31	117
C=CCNC(=S)NCC	.	.	i	0.99	82	.	.
C=CCn1c(=O)c2ccc(C(=O)NCc3ccccc3)cc2n(Cc2cccc(Cl)c2)c1=O	-0.9	-12	.	.	.	-24	114
C=CCn1c(O)c(N=O)c2ccccc21	.	.	i	0.98	104	.	.
Cc1ccc(OCCC(=O)N2CCN(c3ccc(O)cc3)CC2)cc1	.	.	i	0.88	100	.	.
O=C(Cn1cncn1)NCc1cc(F)ccc1F	.	-3	i	0.9	96	.	.
O=C1CC(c2cccs2)Sc2nc3ccccc3n21 (stereo unspecified)	-1.6	-1	i	0.82	93	50	89
COc1ccc(N2CCN(c3nc4ccccc4nc3NS(=O)(=O)c3ccccc3)CC2)cc1	-2.6	-2	i	0.96	122	35	95
CC(=O)N1CCC2(CC1)C(C#N)=C(N)Oc1n[nH]c(CSc3ccc(C)cc3)c12	-2.3	5	i	1	104	18	112
CS(=O)(=O)c1sc2nc(-c3ccccc3)cc(-c3ccccc3)c2c1N	1.9	-1	i	1.1	104	7	64
CCC(=O)N1CCc2cc(S(=O)(=O)CCC(=O)Nc3ccc(C)c(F)c3)ccc21	-0.6	-7	i	1	110	0	133
O=[N+]([O-])c1ccccc1OCCCNCc1ccccc1	.	-9	i	0.96	98	.	.
Cc1cc(C)c(S(=O)(=O)N(C2=NCCS2)S(=O)(=O)c2c(C)cc(C)cc2C)c(C)c1	-0.3	-3	i	0.86	100	-20	148
C=C(C)C(=O)Nc1cccc(C2=NOC3(C2)C[C@H](C(N)=O)N(C(=O)CC)C3)c1 (stereo partly specified)	.	.	i	0.77	100	.	.
O=C(CCC1CCCN(C(=O)c2ccc3c(c2)OCCO3)C1)NCc1ccccc1F (stereo unspecified)	.	2	i	1.2	95	.	.
Cc1c(Cl)c([N+](=O)[O-])nn1Cc1ccc(C(=O)N/N=C\c2cccc(Br)c2)o1	-1.1	-5	i	0.8	98	43	145
Cn1c(=O)[nH]c(=O)c2c1nc(NCc1ccccc1)n2CC(O)c1ccccc1 (stereo unspecified)	-0.5	-17	i	0.9	101	20	125
CSc1nc(C)cc(OCCNS(=O)(=O)c2cc(C)ccc2C)n1	-1.4	5	i	0.93	103	19	116

Entries from the list above that have two or more sulfur atoms (7):
SMILES	GALR2 agonist	PKD1 inh	HSV replic up	HSV replic up primary fold	RGS16-Gao HTS	Insulin prom inh	Insulin prom inh cell count
O=C(Cc1cccs1)Nc1nnc(CCc2ccccc2)s1	0.1	-4	i	1.2	63	0	57
COc1ccccc1N1CCN(S(=O)(=O)c2ccc(Cl)s2)CC1	-1.9	-3	i	1.4	102	-48	59
CCOC(=O)c1cnn(-c2ccccc2)c1NC(=O)CSc1nnc(-c2cccs2)n1CC	-1.5	-2	i	0.99	105	-46	68
O=C1CC(c2cccs2)Sc2nc3ccccc3n21 (stereo unspecified)	-1.6	-1	i	0.82	93	50	89
CS(=O)(=O)c1sc2nc(-c3ccccc3)cc(-c3ccccc3)c2c1N	1.9	-1	i	1.1	104	7	64
Cc1cc(C)c(S(=O)(=O)N(C2=NCCS2)S(=O)(=O)c2c(C)cc(C)cc2C)c(C)c1	-0.3	-3	i	0.86	100	-20	148
CSc1nc(C)cc(OCCNS(=O)(=O)c2cc(C)ccc2C)n1	-1.4	5	i	0.93	103	19	116

Additional records:
SMILES	GALR2 agonist	PKD1 inh	HSV replic up	HSV replic up primary fold	RGS16-Gao HTS	Insulin prom inh	Insulin prom inh cell count
O=C(CCNS(=O)(=O)c1cccc2nsnc12)Nc1ccc2c(c1)OCCO2	-0.7	-3	i	0.94	100	-10	86
COc1ccccc1NC(=O)Nc1ccccc1C(=O)NCCCN1CCOCC1	.	.	i	1.1	102	.	.
COc1ccc(C2(CNC(=O)c3cccc([N+](=O)[O-])c3)CCOCC2)cc1OC	0.3	3	i	0.96	103	31	84
CC1CCc2cc(F)cc3c(O)c(C(=O)NCc4ccco4)c(=O)n1c23 (stereo unspecified)	9.5*	-4	.	.	97	.	.
Cc1n[nH]c(C)c1CCCOc1ccccc1	-0.4	-2	i	0.9	99	.	.
O=C(CNC(=O)c1ccccc1)OCC(=O)N1c2ccccc2Sc2ccccc21	-0.1	-6	i	0.98	99	-17	96
Cc1cccc(N2CCN(C(=O)CN3C(=O)NC(C)(C)C3=O)CC2)c1C	.	.	i	1	101	.	.
CCc1ccccc1NC(=O)N1CCC(NC(=O)C(Cc2ccccc2)NC(C)=O)CC1 (stereo unspecified)	.	5	i	0.92	120	-7	104
Cc1ccc(C(=O)N2CC3(C)CN(C(=O)c4ccc(C)cc4)CC(C)(C2)C3=O)cc1	-0.9	-9	i	0.89	96	3	120
Cc1cccc(NC(=O)c2sc(Cl)nc2-c2ccccc2)c1	-1.0	-1	i	1	44	-63	105
CCOc1ccc(OCC)c(NC(=O)CSc2nnc(-c3cccnc3)o2)c1	-1.0	-6	i	0.94	99	.	.
Cc1ccc(-c2nnn(CC(=O)N(Cc3cccs3)C(C(=O)NC3CCCC3)c3ccncc3)n2)cc1 (stereo unspecified)	-1.1	-9	i	1.1	107	-86	141
Fc1ccc(NC(=S)N/N=C/c2ccc(F)c(F)c2)cc1	.	-2	i	0.92	110	11	165
O=C(c1ccccc1NS(=O)(=O)c1ccc(F)cc1)N1CCc2ccccc21	-1.0	-8	i	0.89	107	.	.
O=C(Nc1ccc(OC(F)F)cc1)c1ccccn1	.	6	i	0.89	96	62	128
CCc1ccc(OCC(=O)OCC(=O)c2ccc3c(c2)NC(=O)CO3)cc1	0.1	2	i	0.94	110	-7	130
Cc1cc(/C=C(/C#N)c2cccc(Cl)c2)c(C)n1C	-1.2	-14	.	.	94	-23	144
Cc1ccc(CN(C(=O)Cc2cccs2)C(C(=O)NC2CCCC2)c2ccncc2)cc1 (stereo unspecified)	-1.4	-9	i	1	105	-27	73
O=NC1=C(c2c(O)[nH]c3ccccc23)CCCC1	-2.2	5	i	0.94	117	-13	86
CC(=O)N(C(C)=O)N1C(=O)/C(=C/c2ccc(Cl)cc2)SC1=S	.	-11	i	0.93	98	.	.
Cc1ccc(Cl)cc1N1CCN(S(=O)(=O)c2ccc3[nH]c(=O)c(=O)[nH]c3c2)CC1	.	6	i	0.95	103	5	105
O=C(CCSCc1cccc(Cl)c1)NCCc1ccc(Cl)cc1	0.5	-3	i	1	103	.	.
Cc1cccc(-c2n[nH]c([N+](=O)[O-])n2)c1	-0.2	-9	i	0.97	94	.	.
CC(C)C[C@H](CO)Nc1nc(N(C)c2cccc(Cl)c2)c2ncn(C(C)C)c2n1	.	.	i	0.75	95	.	.
CCc1nc(N)c(C#N)c(-c2ccccc2OC)c1C	-1.0	-1	i	1.1	87	-14	196
COc1ccc(C2NC(=O)CS2)cc1OC (stereo unspecified)	-2.1	-3	i	0.61	103	.	.
CCc1ccc(OCC(=O)N/N=C(\C)c2ccc3c(c2)OCCO3)cc1	-1.1	-8	i	0.86	100	0	122
COc1ccc(CNC(=O)CN2CCC(n3nnc4cc(F)ccc43)CC2)cc1	.	1	i	0.97	106	.	.
Cn1c(SCc2ccccc2)nnc1-c1ccncc1	-1.4	-7	i	1	105	0	71
